High-throughput results: PubChem BioAssay, National Center for Advancing Translational Sciences (NCATS)
A647 fluor – A647 region autofluorescence. AID 592. max dye-equivalent concentration, M. Compound fluorescence, A647 channel (570/671 nm), Tris buffer. 59,000 tested, under 10 active; active means above 1 µM dye equivalent; inconclusive means 0.1 to 1 µM; inactive means 0.1 µM or less;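 note: values scaled relative to a standard on each plate; highest value over a series up to 38 µM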
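Spectral profiling of library compounds in pH 8.0 Tris: 15 min room-temperature incubation, single ex/em pair (570/671 nm), response normalized to Alexa 647 equivalents.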
AID923 – qHTS Assay for Allosteric/Competitive Inhibitors of Caspase-1: Spectroscopic Profiling in AFC Spectral Region; Potency, µM (series often up to 57.5 µM), for inactives: at the top dose fluorescence increase, hits mostly activators; compound fluorescence, AFC spectral region (405/520 nm); almost no hit is shown here; 1.1% of 75,000 active; active = well fitted activation curve with a large enough effect; inconclusive = small, poorly fitted or top-dose-only effect;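 note: potency is the fitted concentration of half-maximal effect; 0% is about no effect; scaled to a free AFC standard on each plate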
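Baseline compound fluorescence (AFC region, 405 nm ex/520 nm em) taken from the intercept of kinetic reads with 50 nM caspase-1 and 5 uM Ac-WEHD-AFC; normalized to an on-plate AFC standard curve; compounds titrated up to 57 uM.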
A488 autofl – compound fluoresces in the A488 spectral region. max dye equivalency, M. AID 591. 0.1% of 59,000 active. compound autofluorescence, A488 spectral region, dye equivalency; active compounds read high; active = above 10 nM dye equivalent; inconclusive = 1 to 10 nM; inactive = 1 nM or less; about half of its hits are not listed in these tables;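 note: highest value over a series up to 38 µM; compound alone in buffer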
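Autofluorescence read at ex 480/em 540 nm after 15 min RT in 100 mM Tris pH 8.0; compound signal normalized to A488 standard series on each plate, reported as dye-equivalent concentration at each test concentration.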
Resorufin fluor – compound fluoresces in the resorufin spectral region; Compound fluorescence, resorufin region 547/598 nm, buffer; active compounds read high; AID 588; max dye-equivalent concentration, M; 0.04% of 59,000 active; active = above 10 nM dye equivalent; inconclusive = 1 to 10 nM; inactive = 1 nM or less; a few of its hits are not listed in these tables; note: highest value over a series up to 38 µM
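Intrinsic fluorescence profiled in the resorufin window (ex 547 nm, em 598 nm) after 15 min at room temperature in pH 8.0 Tris buffer (100 mM); responses normalized against a six-point resorufin standard series as dye-equivalent concentration.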
TSHR agonist – agonists of human thyroid stimulating hormone receptor. 0.48% of 73,000 active. HEK293-CNG-TSHR cells (CNG channel as cAMP sensor), membrane potential dye, cAMP. P16473. Potency, µM (series often up to 57.1 µM), for inactives: top-dose activation, actives largely listed as activators. AID 926; active = well fitted activation curve of enough size with the parental cells flat; inconclusive = any curve in the parental cells; inactive = parental cells flat and receptor cells flat or falling; note: potency is the fitted concentration of half-maximal effect; % of control where 0% means no effect; weak receptor curves with flat parental cells got no call and are not listed
Target sequence (P16473 whole entry, looked up): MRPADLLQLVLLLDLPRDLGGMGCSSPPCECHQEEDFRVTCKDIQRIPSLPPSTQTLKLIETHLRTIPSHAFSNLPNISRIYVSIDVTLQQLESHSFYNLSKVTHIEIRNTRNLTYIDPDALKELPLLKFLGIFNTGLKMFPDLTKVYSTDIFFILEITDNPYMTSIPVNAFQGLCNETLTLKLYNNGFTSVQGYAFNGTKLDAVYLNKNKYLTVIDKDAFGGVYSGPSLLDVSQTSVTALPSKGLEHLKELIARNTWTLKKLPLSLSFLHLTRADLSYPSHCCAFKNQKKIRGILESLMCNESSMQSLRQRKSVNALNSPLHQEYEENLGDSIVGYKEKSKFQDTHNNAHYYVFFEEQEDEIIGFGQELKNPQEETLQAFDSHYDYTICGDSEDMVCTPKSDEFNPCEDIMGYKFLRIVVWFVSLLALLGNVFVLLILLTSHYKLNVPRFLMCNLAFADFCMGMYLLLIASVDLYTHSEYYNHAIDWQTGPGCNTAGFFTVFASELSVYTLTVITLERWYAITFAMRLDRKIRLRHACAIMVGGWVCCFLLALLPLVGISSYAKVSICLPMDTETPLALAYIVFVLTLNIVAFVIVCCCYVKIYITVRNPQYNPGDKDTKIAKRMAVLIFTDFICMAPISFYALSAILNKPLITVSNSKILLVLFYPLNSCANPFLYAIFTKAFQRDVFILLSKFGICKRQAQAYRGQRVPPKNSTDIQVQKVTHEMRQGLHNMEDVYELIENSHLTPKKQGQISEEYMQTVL
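cAMP rise detected as CNG-channel membrane depolarization by fluorescent dye (emission 590 nm), 30 min after compound, following 60 min dye loading containing 100 uM RO 20-1724 at room temperature. Cells: TSHR/CNG HEK 293, with parental CNG HEK 293 as control.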
* = called active by the depositor; i = inactive; ? = inconclusive; · = not tested or not shown; & = joins results of further samples; [ ] = remark or other dose.

Values run as follows: A647 fluor	AID923	A488 autofl	Resorufin fluor	TSHR agonist
Cc1cc(C)c2[nH]c(=O)c(C(c3nnnn3C(C)(C)C)N3CCN(C(=O)c4ccco4)CC3)cc2c1 (stereo not given)
    1e-09	1.0%	i	i	-7%
O=C(COc1cnc2ccccc2n1)NCCC1=CCCCC1
    6.6e-09	-0.5%	i	i	17%
O=C(NCc1ccc2c(c1)OCO2)c1ccc(CN2CCOCC2)cc1
    1e-09	1.3%	i	i	0%
CN(C)Cc1ccccc1-c1ccc2ncnc(N3CCOCC3)c2c1
    1e-09	-0.6%	i	i	6%
CN(C(=O)c1cnccn1)c1nnc(-c2cccnc2)s1
    1.2e-08	0.3%	i	i	?
OC(CNC1CCCCC1)CN1CCN(CC(O)CNC2CCCCC2)CC1 (stereo not given)
    ·	-0.1%	·	·	0%
Cc1noc(/C=C/N(C)C)c1S(=O)(=O)N1CCC(C(=O)O)CC1
    ·	1.4%	·	·	1%
Cn1c(=O)oc2cc(S(=O)(=O)N3CCCC(C(=O)Nc4ccc5c(c4)OCCO5)C3)ccc21 (stereo not given)
    ·	8.0%	·	·	-7%
CCCOc1cccc(C2C(C(=O)c3ccc(C)o3)=C(O)C(=O)N2CCCN(C)C)c1 (stereo not given)
    2.7e-08	·	i	i	·
O=C(O)CC1NC(=O)N(c2ccccc2)C1=O (stereo not given)
    1e-09	-0.4%	i	i	0%
COc1ccc(OC2C=CC(C#Cc3ccc(Br)cc3)OC2CO)c(C(C)(C)C)c1 (stereo not given)
    ·	1.7%[11.5 µM]	·	·	4%[11.4 µM]
C=CCN1CCN(C(c2ccccc2)c2nnnn2CCC(C)C)CC1 (stereo not given)
    4.5e-08	2.7%	i	i	?
COc1cccc(CNC(=O)C2CCCN(c3nn4c(=O)cc(C)nc4s3)C2)c1 (stereo not given)
    6.3e-09	-1.0%	i	i	0%[11.4 µM]
O=c1[nH]c(=O)c2nc3ccccc3nc2[nH]1
    4.9e-08	3.8%	?	i	2%
Cc1nc2cnc(Nc3ccccc3)nc2n(C)c1=O
    1e-09	-1.1%	i	i	-6%
CN(C)C(=O)c1ccccc1-c1ccccc1
    9.8e-09	-1.8%	i	i	1%
O=C(Nc1cccnc1)C1(c2ccccc2)CCCC1
    1.2e-08	0.9%	i	i	2%
COC(=O)COC(=O)c1ccc(O)cc1
    ·	3.0%	·	·	-6%
CCCCn1c(NCc2ccccn2)nc2ccccc21
    2.4e-09	0.9%	i	i	?
COC(=O)Cn1c(=NC(=O)CSC(C)=O)sc2ccccc21
    ·	3.8%	·	·	0%
Cc1cc(C(=O)OCC(=O)N2CCOCC2)c2ccccc2n1
    7.1e-09	-0.6%	i	i	2%
N#CC1=C2SCC(O)(c3ccccc3)N2C(=O)CC1c1cccs1 (stereo not given)
    2.2e-09	0.8%	i	i	16%
Cc1ccc(C)c(NC(=O)C2CC(Cl)=CCC2C(=O)O)c1 (stereo not given)
    2.9e-09	-0.5%	i	i	6%
O=C(CSc1nnc(CN2CCOCC2)n1-c1ccc(Cl)cc1)Nc1cc(Cl)ccc1O
    1.3e-08	-0.6%	i	i	-23%
CCN1C(=O)c2cccc3cccc1c23
    7.7e-09	15%	i	i	10%
CSc1nc(N)nc(SCC(=O)CC(=O)OC(C)C)c1C#N
    2e-08	·	i	i	·
CSC(=NC1CCCCC1)NS(=O)(=O)c1ccccc1
    1e-09	0.2%	i	i	?
Cc1ccc(S(=O)(=O)N[C@@H](CC(C)C)C(=O)NCc2ccco2)cc1
    3e-09	3.8%	i	i	-2%
CCCCO
    ·	-2.2%&-1.4%	·	·	1%&2%
CCc1cc2c(=O)c(-c3nc4ccccc4n3C)c(C)oc2c(CN2CCN(C)CC2)c1O
    2.1e-08	1.5%	i	i	11%
CC(=O)/C=C(\C)NCCNc1c(F)c(F)c(CO)c(F)c1F
    1e-09	·	i	i	·
O=C(c1cnccn1)N1CCC2(CCN(Cc3cc(C(F)(F)F)cc(C(F)(F)F)c3)CC2)CC1
    1e-09	1.7%	i	i	3%
CCCC(=O)C1C(=O)CC(C)(C)C(c2cc(C)no2)C1=O (stereo not given)
    ·	0.5%	·	·	9%
COC(=O)c1ccccc1NC(=O)COc1ccccc1
    ·	2.9%	·	·	?
COc1ccc(CC(=O)N2CCN(c3ccccn3)CC2)cc1
    3.2e-08	-1.9%	i	i	13%
CCCCCOC(=O)c1ccccc1C(=O)O
    2.6e-08	-2.1%	i	i	6%
CCCCN(CC)Cc1ccc(CNC(=O)Nc2ccc(OC)cc2OC)o1
    7.6e-09	0.7%	i	i	2%
CCn1c(=O)cc(OCC(=O)N2CCN(c3cccc(C(F)(F)F)c3)CC2)c2ccccc21
    6.6e-09	0.1%	i	i	2%[11.4 µM]
O=C(CCCc1nc(-c2ccccc2Cl)no1)NCc1cccnc1
    4.8e-09	3.3%	i	i	-9%
O=S(=O)(c1ccccc1)N1CCC2(CC1)CN(Cc1ccccc1)C2
    4.5e-09	1.3%	i	i	-9%
COc1ccc(CSc2nnc(C)n2N)cc1Br
    4.8e-08	·	i	i	·
COc1ccc(N2CSC3=C(C#N)C(c4cccs4)CC(=O)N3C2)cc1 (stereo not given)
    1e-09	6.8%	i	i	6%
CCN(CC)S(=O)(=O)c1ccc(Cl)c(C(=O)NCC2CCCO2)c1 (stereo not given)
    2.3e-08	0.2%	i	i	1%
CC(C)C(C(=O)Nc1nccs1)c1ccccc1 (stereo not given)
    2.6e-08	-1.1%	i	i	·
CCn1c(=N)n(CC(=O)c2cccc(OC)c2)c2ccccc21
    4.5e-09	-1.4%	i	i	11%
COc1ccc(C(=O)Nc2ncc3c(n2)CC(c2ccco2)CC3=O)cc1 (stereo not given)
    1e-09	1.4%	i	i	4%
COC(=O)c1ccc(CSc2nnc(Nc3ccccc3OC)s2)o1
    3.3e-08	2.6%	i	i	23%
CC(C)c1ccc2oc(-c3ccc(NC(=O)c4ncn[nH]4)cc3)nc2c1
    1e-09	0.5%	i	i	-4%
CCN1C(=O)[C@H]2[C@H]3[C@H](O)[C@H](O)C/C(=N/O[C@@H](C)CN4CCCc5nc(C)c(C)cc54)[C@@H]3CC[C@@H]2C1=O
    ·	13%[11.5 µM]	·	·	9%[11.4 µM]
COc1ccc(N2CCN(C(=O)CN(c3cccc(Br)c3)S(C)(=O)=O)CC2)cc1
    ·	-0.9%	·	·	4%[11.4 µM]

Next section:
Values run as follows: A647 fluor	AID923	A488 autofl	Resorufin fluor	TSHR agonist
CCn1c(CCC(=O)Nc2cc(F)ccc2C)nc2cc(S(=O)(=O)N(C)C)ccc21
    1e-09	5.0%	i	i	11%
CCCc1ccc(S(=O)(=O)NCCc2ccncc2)cc1
    5.3e-09	1.0%	i	i	6%[11.4 µM]
NC(N)=NS(=O)(=O)c1ccc(N)cc1
    2.4e-09&2.8e-08	-1.0%	i	i	-15%[25.6 µM]
COc1ccccc1CNc1ncncc1-c1ccc(N(C)C)cc1
    2e-08	0.0%	i	i	6.3µM*
O=C(c1cc2c(s1)CCCC2)N1CCN(Cc2ccc3c(c2)OCO3)CC1
    1e-09	0.1%	i	i	?
Cc1cc(OCc2nn[nH]n2)c2c(-c3ccccc3)cc(=O)oc2c1
    5.9e-09	0.5%	i	i	1%
O=C(COc1ccc(-c2nnc(N3CCCCC3)c3ccccc23)cc1)N1CCCCC1
    3.3e-08	·	i	i	·
COC(=O)c1sc2nc(N3CCCCC3)c3c(c2c1N)CC(C)(C)N(C)C3
    1e-09	·	i	i	·
CC(C)(C)Sc1nc(O)cc(=O)[nH]1
    1.5e-09	0.8%	i	i	5%
O=C(CCC1CCCC1)N1CCN(C2CCCC2)CC1
    2.3e-09	-1.2%	i	i	-2%
CCCS(=O)(=O)N1CCC(C(=O)NCc2ccco2)CC1
    1e-09	1.9%	i	i	0%
CCCCCNC(=O)CCn1c(=O)oc2ccccc21
    1.9e-08	0.1%	i	i	0%
CC(=O)Nc1nnc(Cc2ccccc2)s1
    1e-09	0.7%	i	i	?
CCOC(=O)c1ccc(S(=O)(=O)Nc2ccccc2-c2nnn(CC)n2)cc1
    1e-09	-0.4%	i	i	?
COCC(=O)N1CCC[C@@]2(CCN(C(=O)Nc3ccccc3)C2)C1
    2.4e-09	1.5%	i	i	-6%
Cc1nnc(SCCn2c(N3CCN(C)CC3)nc3c2c(=O)n(C)c(=O)n3C)s1
    4.5e-08	-2.0%	i	i	-3%
N=C1C(c2nc3ccccc3s2)=C(O)CN1CCCO
    1e-09	-0.1%	i	i	-4%
O=C(Cn1cnc2c(oc3ccccc32)c1=O)NCc1ccco1
    1.3e-08	1.2%	i	i	5%
CC1CCCCC12NC(=O)N(CC(=O)c1ccc[nH]1)C2=O (stereo not given)
    2.3e-09	1.8%	i	i	1%
Cc1ccccc1Cc1c(C)nc2c(C(=O)N3CCN(Cc4ccc5c(c4)OCO5)CC3)cnn2c1C
    2.5e-09	-3.3%	i	i	?

Grouped by structure: the compounds so far with a Cl atom
Values run as follows: A647 fluor	AID923	A488 autofl	Resorufin fluor	TSHR agonist
Cc1ccc(C)c(NC(=O)C2CC(Cl)=CCC2C(=O)O)c1 (stereo not given)
    2.9e-09	-0.5%	i	i	6%
O=C(CSc1nnc(CN2CCOCC2)n1-c1ccc(Cl)cc1)Nc1cc(Cl)ccc1O
    1.3e-08	-0.6%	i	i	-23%
O=C(CCCc1nc(-c2ccccc2Cl)no1)NCc1cccnc1
    4.8e-09	3.3%	i	i	-9%
CCN(CC)S(=O)(=O)c1ccc(Cl)c(C(=O)NCC2CCCO2)c1 (stereo not given)
    2.3e-08	0.2%	i	i	1%

Going on with the list.
Values run as follows: A647 fluor	AID923	A488 autofl	Resorufin fluor	TSHR agonist
Cc1cccc(-c2nnc3n2N=C(c2ccccc2Br)CS3)c1
    4e-08	-0.3%	i	i	?
COc1ccc(OC)c(S(=O)(=O)N2CCC(C(=O)N3CCc4ccccc4C3)CC2)c1
    1e-09	-1.3%	i	i	6%
CCOC(=O)CCc1c(C)c(C#N)c2[nH]c3ccccc3n2c1=O
    9e-08	·	i	i	·
CCOc1ccccc1C1N(c2ccc(F)cc2)C(=O)C2CCCN21 (stereo not given)
    1e-09	-0.6%	i	i	16%
CSc1nncc(-c2ccc(F)cc2)n1
    3e-08	-2.0%	i	i	14%
CCCCOc1ccc(-c2nnn(C(C)(C)C(=O)OC)n2)cc1
    1e-09	-0.8%	i	i	?
Cc1[nH]nc2c1C(c1ccccc1F)NC2=O (stereo not given)
    ·	2.4%	·	·	0%
COCc1nnc(NC(=O)c2ccc(S(=O)(=O)N(C)C3CCCCC3)cc2)o1
    1e-09	0.6%	i	i	0%
COc1ccc(CNc2cc(-c3ccoc3)ncn2)c(OC)c1
    2.9e-09	5.6%	i	i	·
C=CCNC(=O)C1CC(=O)N(c2ccc(C)cc2)C1 (stereo not given)
    ·	4.4%	·	·	-29%
COc1ccc(-n2c(C)cc(C(=O)COC(=O)Cn3cnc4ccccc43)c2C)cc1
    5.4e-09	-0.1%	i	i	?
O=C(Nc1ccccc1)N(O)c1ccc(Cl)cc1
    8.1e-09	1.6%	i	i	-19%
O=C1OCc2cc(NC(=O)C3CCCO3)ccc21 (stereo not given)
    7.2e-09	-2.3%	i	i	-2%
CC(C)(C)C1=Nn2c(nnc2-c2n[nH]c3c2CCC3)SC1
    2.9e-08	2.2%	i	i	10%
CC1(C)CC(=O)C(C=NCc2ccccn2)=C(O)C1
    ·	0.0%	·	·	7%
CCOC(=O)c1cccc(NC(=O)CNC(=O)C2CCCCC2)c1
    ·	-1.0%	·	·	7%

Not all compounds are listed, so the mix of outcomes need not match the whole.
